# Source: PubChem
# Rango complex inh = prevents formation of the Rango-importin beta complex; Rango CFP/YFP FRET sensor + importin beta, 45 min; 0.031% of 340,000 active; Potency, µM (doses to about 92.2 µM), inactives show top-dose inhibition of complex formation; active = rising FRET ratio curve, often small or poorly fitted; inconclusive = mostly compound fluorescence or quenching in the first reads; inactive = flat curves in all reads;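 note: potency is the fitted concentration of half-maximal effect; 0% = DMSO wells and 100% = buffer wells lacking importin beta; nearly all actives have a fitted effect of over 15% in size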
# Target sequence (Q14974 whole entry, looked up): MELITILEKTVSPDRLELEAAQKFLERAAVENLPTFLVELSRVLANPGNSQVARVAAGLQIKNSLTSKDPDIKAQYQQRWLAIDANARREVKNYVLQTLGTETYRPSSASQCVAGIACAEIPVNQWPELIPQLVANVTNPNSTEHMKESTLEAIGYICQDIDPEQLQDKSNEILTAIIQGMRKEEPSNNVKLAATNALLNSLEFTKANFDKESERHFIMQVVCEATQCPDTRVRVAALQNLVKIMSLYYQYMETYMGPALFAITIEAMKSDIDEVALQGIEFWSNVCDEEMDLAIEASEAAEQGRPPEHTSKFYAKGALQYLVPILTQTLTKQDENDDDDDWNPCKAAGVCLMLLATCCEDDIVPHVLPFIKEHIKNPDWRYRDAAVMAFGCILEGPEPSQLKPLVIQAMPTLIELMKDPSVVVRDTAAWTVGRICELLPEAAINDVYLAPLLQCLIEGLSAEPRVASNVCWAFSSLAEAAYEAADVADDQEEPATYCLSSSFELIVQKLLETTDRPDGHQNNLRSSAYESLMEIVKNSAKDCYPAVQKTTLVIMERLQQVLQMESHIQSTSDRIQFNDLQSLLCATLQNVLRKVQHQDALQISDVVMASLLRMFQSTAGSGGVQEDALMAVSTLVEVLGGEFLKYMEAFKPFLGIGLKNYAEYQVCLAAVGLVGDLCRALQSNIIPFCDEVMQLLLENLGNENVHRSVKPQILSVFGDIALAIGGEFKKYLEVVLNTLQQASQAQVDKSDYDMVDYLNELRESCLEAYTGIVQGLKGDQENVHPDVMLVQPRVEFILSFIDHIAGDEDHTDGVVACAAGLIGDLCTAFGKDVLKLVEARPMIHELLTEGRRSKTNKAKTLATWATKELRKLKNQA
#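 FRET biosensor Rango (snurportin 1 IBB between N-terminal EYFP and C-terminal Cerulean), 50 nM in PBS/1 mM DTT/0.02% Tween-20/0.1% BSA, preincubated 5 min RT with compound; 0.125 microM importin beta added, 45 min RT, CFP/YFP FRET ratio read.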
# GLA inh pH 4.5 = blocks human alpha-galactosidase A at pH 4.5 | purified enzyme, 4-MU-alpha-Gal fluorescence, pH 4.5 | activity change, negative = inhibition, % at 105 µM | 230,000 tested, under 10 active | AID 1467; inconclusive = small, poorly fitted or top-dose-only inhibition, or a rising curve; inactive = flat fitted curve, though single readings scatter; no compound was filed as active;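 note: 0% = full activity with enzyme and -100% = basal without enzyme; dose as in the result columns while the protocol names 77 µM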
# Rango dissoc inh = prevents RanGTP from dissociating the Rango-importin beta complex; 0.071% of 340,000 active; Biochemical FRET Rango-importin beta, RanGTP-induced dissociation; AID 540253; Potency, µM (top dose mostly 46.1 µM), for the others: top-dose activity change, negative = inhibition; O95149+P62826; active means falling FRET ratio curve, often poorly fitted, with flat reads before Ran was added; inconclusive means other falling curves, or compound fluorescence or quenching; inactive means flat or rising ratio curve;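 note: potency is the fitted concentration of half-maximal effect; % of control where 0% means no effect; nearly all actives have a fitted effect of over 45% in size; -100% = wells without RanGTP and RCC1; the record marks most hits as doubtful in a second field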
#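 Compounds preincubate 5 min with complex of recombinant Rango and importin beta in PBS with 1 mM DTT. Ran (0.6 uM) loaded with 2 mM GTP plus 0.2 uM RCC1 starts dissociation; FRET is recorded 45 min later.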
# miR-21 FLuc = raises the signal of a miR-21 reporter; AID 2288; Potency, µM (doses to about 38.3 µM), without a hit: at the highest dose reporter change, positive = more light; HeLa miR-21 FLuc reporter, luciferase, 48 h; 340,000 tested, under 10 active; active = well fitted rising curve with a large enough effect; inconclusive = small, poorly fitted or top-dose-only effect; inactive = no such curve, though single readings can be large or run the other way;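 note: % of control where 0% means no effect; miR-21 action dims this reporter so a rising signal means less miR-21 action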
#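 HeLa cells stably expressing CMV-driven firefly luciferase with a downstream miR-21 binding sequence, endogenously expressing miR-21, were treated with titrations (up to about 40uM final) for 48 hours at 37 degree Celsius. Luciferase luminescence was read after lysis.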
# An asterisk follows results filed as active; ? = inconclusive; nt = no result given; & = joins results of further samples. The list is partial; rates above refer to the full screens.
miR-21 FLuc,Rango complex inh,Rango dissoc inh,GLA inh pH 4.5,structure
-10%,0.3%,12%,4,COc1cccc(C(C(=O)NCc2ccco2)N(C(=O)Cn2nnc3ccccc32)C2CC2)c1OC (configuration not stated)
14%,0.8%,-8%,-7,CCn1c2ccccc2c2cc(/C=N/n3c(-c4cc(C)[nH]n4)n[nH]c3=S)ccc21
-11%,2.6%,2%,nt,COc1ccc(NC(=O)CSc2ccc3nnc(-c4cccnc4)n3n2)cc1OC
-2%,1.6%,3%,-1,CCN1C(=O)/C(=C\c2cccn2-c2ccc([N+](=O)[O-])cc2)N(CC)C1=S
0%,0.3%,1%,5,COc1ccccc1Nc1ccc(C(=O)NCc2cccs2)cn1
nt,-4.2%,19%,nt,COCCN(C(=O)COC(=O)c1cc2ccccc2cc1OC)c1c(N)n(Cc2ccccc2)c(=O)[nH]c1=O
?,-3.4%,-8%,2,CC1=C(n2nnc([N+](=O)[O-])n2)C(c2cccnc2)C(C#N)=C(N)O1 (configuration not stated)
-67%,3.3%,?,nt,CC(=O)N(c1nnc(-c2cccc(C)c2)s1)C1CCCC1
nt,-3.2%,-21%,nt,Cc1ccc(C(=O)OCC(=O)N2CCC(c3ccccc3)=N2)c(C)c1
-1%,-0.4%,-7%,nt,CC1CCN(c2nc3c(=O)[nH]c(N)nc3n2[C@@H]2O[C@H](CO)[C@@H](O)[C@H]2O)CC1
-3%,0.6%,1%,nt,Cc1ccc(C)c(NC(=O)CCN2CCCCC2)c1
-4%,-0.8%,-14%,1,CCOC(=O)N1CCN=C1SCc1ccc(C(F)(F)F)cc1

# (cont.)
miR-21 FLuc,Rango complex inh,Rango dissoc inh,GLA inh pH 4.5,structure
-2%,0.3%,0%,-7,CC(C)(C)NC(=O)NC(=O)CN1CCN(c2ncc(C(F)(F)F)cc2Cl)CC1
-34%,-1.6%,10%,1,Cc1ccc(NC(=O)CSc2ncccn2)c([N+](=O)[O-])c1
-5%,1.3%,24%,-12,CCOC(=O)c1nc(C)nc(Sc2n[nH]c(-c3cc(Cl)cc(Cl)c3)n2)c1C
-1%,2.6%,8%,-2,O=C(NC1CCCCCC1)C1CCN(c2nc3ccccc3o2)CC1
-5%,-0.1%,3%,-13,CCOC(=O)CC1C(=O)NCCN1S(=O)(=O)c1ccc(Cl)cc1Cl (configuration not stated)
-55%,?,-6%,0,CC(=O)N1CCC(=NNc2nc3ccccc3s2)CC1
nt,-2.1%,1%,nt,COc1ccc(NC(=S)NCCSc2ccc(C)cc2)c(OC)c1
nt,-0.1%,1%,nt,CCOC(=O)CCCC(=O)Nc1ncnc2c1C(c1ccccc1)c1c(ccc3ccccc13)O2 (configuration not stated)
5%,0.0%,-1%,2,CC(=O)c1ccc2c(c1)OCCOCCOCCO2
-2%,8.0%,20%,-10,CCC(C)NC(=O)CCSCCC(=O)NC(C)CC (configuration not stated)
3%,1.7%,9%,0,O=C(Nc1ccccn1)NC(C(F)(F)F)C(F)(F)F
-7%,-0.1%,1%,nt,COc1ccc(S(=O)(=O)N(C)CC(=O)N2CCCC2)cc1OC

# The list goes on:
miR-21 FLuc,Rango complex inh,Rango dissoc inh,GLA inh pH 4.5,structure
-9%,-0.2%,7%,3,O=[N+]([O-])c1ccc2c(c1)C=C1CCCCC1(N1CCCC1)O2 (configuration not stated)
-8%,-2.2%,13%,-11,Clc1ccc(CONc2ncnc3nonc23)c(Cl)c1
-11%,-0.5%,-19%,1,CCN=C1S/C(=C\c2cn(CC)c3ccccc23)C(=O)N1CC
-6%,3.4%,28%,3,Cc1ccc(Cn2ccc(NC(=O)C3C4CCC(C4)C3C(=O)O)n2)cc1 (configuration not stated)
-21%,-1.9%,-12%,-1,CSc1nnc2c(n1)c(C)nn2-c1cccc(C)c1
0%,2.2%,-10%,-1,CC(OC(=O)C(C)N1C(=O)C2C3C=CC(C4CC34)C2C1=O)C(=O)c1ccccc1 (configuration not stated)
-4%,2.0%,-6%,-6,CCNC(=S)N(CCc1cccc(C)c1)Cc1cc2cc(OC)c(OC)cc2[nH]c1=O
-2%,1.2%,-19%,nt,Cc1ccc(NC2CCCN(C(=O)CSc3ccccn3)C2)cc1C (configuration not stated)
-12%,0.3%,-7%,3,COc1ccc(CCNC(=O)C2CCN(S(=O)(=O)c3cccc4nonc34)CC2)cc1OC
-16%,1.1%,11%,13,CC1(C(=O)NC(=S)N(Cc2ccccc2)c2ccccn2)CC1(Cl)Cl (configuration not stated)
nt,2.7%,?,nt,COc1ccc(CN(C)C(=O)Cn2cnc3c(NCc4ccccc4)ncnc32)cc1OC
0%,-3.7%,-20%,-19,CCc1nc(Nc2ccc3nccnc3c2)c2oc3ccccc3c2n1

# Carrying on.
miR-21 FLuc,Rango complex inh,Rango dissoc inh,GLA inh pH 4.5,structure
nt,?,1%,nt,CC1(c2ccc3ccccc3c2)NC(=O)N(CC(=O)NCC(C)(C)N2CCOCC2)C1=O (configuration not stated)
1%,?,-26%,-1,CCOc1ccc(C(=O)C[n+]2ccc(C(=O)NCc3ccccc3)cc2)cc1
nt,0.7%,-13%,nt,CCOC(=O)c1c(NC(=O)COC(=O)Cn2cnc3c2c(=O)n(C)c(=O)n3C)sc(C)c1CC
-6%,3.2%,11%,-6,Cc1cccc(NC(=S)N2CCC(N(C)CC3CCCO3)CC2)c1 (configuration not stated)
-3%,0.7%,15%,nt,O=S(=O)(Nc1ccncc1)c1cc(Cl)c(Cl)cc1Cl
-6%,-5.5%,2%,3,COc1ccc(CNC(=O)c2cc(-c3ccc(OC)c(OC)c3)on2)cc1
-9%,3.4%,1%,-6,COc1ccc(OC)c(C(c2nnnn2Cc2ccccc2)N2CCN(C)CC2)c1 (configuration not stated)
-3%,3.0%,1%,nt,CCC1CCCCN1CCCNC(=O)c1ccc2c(c1)c(C)c(C)n2C (configuration not stated)
-3%,1.2%,-10%,nt,Cc1ccc(NC(=O)CNC(=O)c2ccc3c(c2)OCO3)nc1
nt,-1.0%,-1%,nt,Cc1cccc(C(=O)OCC(=O)N2CCN(C(=O)c3ccco3)CC2)c1O
-4%,-1.5%,-13%,-4,COC(=O)c1ccc(/C=N/n2cnnc2)cc1
-4%,5.6%,-8%,-9,Cn1c(SCC(=O)NCc2ccco2)nnc1-c1cccs1

# Next entries
miR-21 FLuc,Rango complex inh,Rango dissoc inh,GLA inh pH 4.5,structure
-11%,1.2%,4%,4,O=C(O)c1cccc([N+](=O)[O-])c1C(=O)Nc1nc2ccccc2s1
-52%,0.4%,-21%,-5,CCCC(=O)Nc1ccc2oc(-c3cccnc3)nc2c1
-52%,-6.7%,0%,10,O=C(c1ccco1)N1CCC(c2ccccc2)C1 (configuration not stated)
-3%,5.7%,27%,-2,Cc1c(Cl)cccc1NC(=O)CNc1ccccc1F
-32%,-0.3%,9%,7,COc1cccc(-c2nn3c(-c4cccc(C)c4)nnc3s2)c1
-4%,-1.7%,-3%,-1,CC(C)=CCN1CCN(Cc2ccc(Oc3ncccn3)cc2)CC1CCO (configuration not stated)
17%,-0.7%,?,-5,CCOc1ccccc1C(=O)N1c2ccccc2Sc2ccccc21
-5%,-6.4%,-12%,-4,O=C(NCCCN1CCCC1=O)c1ccccc1NS(=O)(=O)c1ccc(Br)cc1
-27%,-3.5%,2%,-3,Cc1ccc(Nc2nc(CSc3nnc(-c4cccs4)o3)cs2)cc1
-2%,?,?,-17,COC(=O)\C(C(C)=O)=C(/C=C/C=C/N(C)C)N(C)C
0%,-1.6%,0%,nt,CCc1ccc(OC(=O)CN2C(=O)c3ccccc3C2=O)cc1
0%,-2.0%,3%,-4,Cc1ccc2c(CC(=O)NCc3ccco3)coc2c1C

# (next part)
miR-21 FLuc,Rango complex inh,Rango dissoc inh,GLA inh pH 4.5,structure
12%,nt,nt,-8,CC(=O)c1cccc(NC(=O)Nc2cnn(Cc3ccc(F)cc3)c2)c1
-46%,0.0%,27%,-14,N/C(=N\c1nc2ccccc2o1)NC(=O)c1ccccc1Br
-4%,?,-28%,0,Cc1cc(-c2ccccc2)c(C#N)c(N)n1
-3%,0.0%,-1%,-1,COc1ccccc1NC(=O)Cc1noc(CSc2n[nH]c(N)n2)n1
-47%,0.3%,1%,nt,Fc1ccc(N2CCN(c3cnc4ccccc4n3)CC2)cc1
-1%,-0.4%,-15%,nt,O=C(CCC(=O)N1CCOc2ccccc21)NCCCN1CCCCC1
9%,-5.6%,-22%,1,Cn1c(=O)c2c(SCC(=O)NCc3ccco3)nc(CC(C)(C)C)nc2n(C)c1=O
-1%,2.3%,3%,11,CCN(CC)S(=O)(=O)c1cccc(-c2cn3cccnc3n2)c1
-12%&-10%,-1.4%,-21%,nt,COc1cccc(-c2ccnc3[nH]n(-c4ccccc4)c(=O)c23)c1
0%,6.6%,9%,-1,COc1ccc(/C=C/C(=O)OCC(=O)NC2CCCC(C)C2C)cc1S(=O)(=O)N1CCOCC1 (configuration not stated)
nt,-2.7%,2%,nt,COc1ccc(OC)c(/C=N\Nc2nccs2)c1
-1%,2.2%,0%,-3,Cc1cc(-n2cccn2)ccc1CN1CCN(CC(C)C)C(CCO)C1 (configuration not stated)

# The closing six entries of the section before are carried over, then new ones follow.
miR-21 FLuc,Rango complex inh,Rango dissoc inh,GLA inh pH 4.5,structure
9%,-5.6%,-22%,1,Cn1c(=O)c2c(SCC(=O)NCc3ccco3)nc(CC(C)(C)C)nc2n(C)c1=O
-1%,2.3%,3%,11,CCN(CC)S(=O)(=O)c1cccc(-c2cn3cccnc3n2)c1
-12%&-10%,-1.4%,-21%,nt,COc1cccc(-c2ccnc3[nH]n(-c4ccccc4)c(=O)c23)c1
0%,6.6%,9%,-1,COc1ccc(/C=C/C(=O)OCC(=O)NC2CCCC(C)C2C)cc1S(=O)(=O)N1CCOCC1 (configuration not stated)
nt,-2.7%,2%,nt,COc1ccc(OC)c(/C=N\Nc2nccs2)c1
-1%,2.2%,0%,-3,Cc1cc(-n2cccn2)ccc1CN1CCN(CC(C)C)C(CCO)C1 (configuration not stated)
-72%,-6.0%,-6%,-5,N#CCCN1CCN(C(=S)c2ccc(-c3cccc(Cl)c3)o2)CC1
-1%,0.7%,-12%,7,CCN(CC)c1ccc(S(=O)(=O)N(CC)CC)cc1NC(=O)c1cccnc1
6%,-0.3%,17%,-12,CCOC(=O)N1CCC(=NNC(=O)COc2ccc(OC)cc2)CC1
-13%,-3.5%,-3%,-4,COc1cc(=O)n2c(-c3ccccc3)csc2n1
0%,3.8%,-3%,8,CCCCNC(=O)C1c2ccccc2Oc2ccccc21
8%,4.1%,19%,nt,CNC(=O)c1sc(NCc2ccccc2OC)nc1C
-4%,-0.4%,8%,-8,CCCNC(=O)NC(=O)COC(=O)c1cccc(NS(=O)(=O)c2ccc(F)c(F)c2)c1
-4%,4.2%,14%,nt,Cc1cc(OC(C)C(=O)NCCCN2CCOCC2)ccc1Cl (configuration not stated)
-2%,2.2%,-18%,-2,O=C(OCn1nnc2ccccc2c1=O)C1CCCCC1
-1%,1.0%,-8%,-4,CCc1ccccc1N(CC(=O)NCCSCc1ccco1)S(C)(=O)=O
-40%,0.5%,1%,7,CC1(C)Oc2ccc(NC(=O)c3ccco3)cc2O1
-26%,?,?,-10,Cc1cc2c(cc1C)NC(c1c(C)n(C)n(-c3ccccc3)c1=O)C1=C(CC(C)(C)CC1=O)N2 (configuration not stated)

# Additional compounds:
miR-21 FLuc,Rango complex inh,Rango dissoc inh,GLA inh pH 4.5,structure
1%,-2.5%,19%,nt,Cc1ccc(CNC(=O)C2CCN(S(=O)(=O)c3cccnc3)CC2)cc1
nt,2.3%,11%,nt,Cc1ccccc1S(=O)(=O)N1C[C@H]2CON(C)[C@H]2C[C@H]1c1cccc(Oc2ccccc2)c1
-1%,-1.0%,-15%,nt,COc1ccc(CCN2C(=O)CSC2c2ccc(F)cc2)cc1 (configuration not stated)
-4%,?,-19%,nt,COc1ccccc1-c1cc(C(F)(F)F)n2ncc(C(=O)N3CCc4ccccc4C3)c2n1
1%,-1.4%,-5%,-8,Cc1ccc(NCc2nnc(SCC(=O)O)n2-c2ccc(C)cc2)cc1
28%,0.6%,1%,-2,Cc1ccc(Oc2ccc(C(=O)NCc3ccncc3)cc2)cc1
-2%,2.4%,27%,0,N#Cc1cccc2cnccc12
nt,4.7%,-1%,nt,CCNc1nc(NCC)n2c(SCC(=O)Nc3ccc(OC(F)F)cc3)nnc2n1
